High-throughput results: PubChem BioAssay, National Center for Advancing Translational Sciences (NCATS)
GLA inh pH 4.5: blocks human alpha-galactosidase A at pH 4.5. P06280. purified enzyme, 4-MU-alpha-Gal fluorescence, pH 4.5. activity change, negative = inhibition, % at 105 µM. 230,000 tested, under 10 active; inconclusive = small, poorly fitted or top-dose-only inhibition, or a rising curve; inactive = flat fitted curve, though single readings scatter; no compound was filed as active;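 note: 0% = full activity with enzyme and -100% = basal without enzyme; dose as in the result columns while the protocol names 77 µM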
Rango complex inh: prevents formation of the Rango-importin beta complex; Q14974; Rango CFP/YFP FRET sensor + importin beta, 45 min; Potency, µM (titrated, usually from 92.2 µM), inactives show at the highest dose inhibition of complex formation; 340,000 compounds, 0.031% hits; AID 540263; active = rising FRET ratio curve, often small or poorly fitted; inconclusive = mostly compound fluorescence or quenching in the first reads; inactive = flat curves in all reads;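 note: potency is the fitted concentration of half-maximal effect; 0% = DMSO wells and 100% = buffer wells lacking importin beta; nearly all actives have a fitted effect of over 15% in size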
Target sequence (Q14974 whole entry, looked up): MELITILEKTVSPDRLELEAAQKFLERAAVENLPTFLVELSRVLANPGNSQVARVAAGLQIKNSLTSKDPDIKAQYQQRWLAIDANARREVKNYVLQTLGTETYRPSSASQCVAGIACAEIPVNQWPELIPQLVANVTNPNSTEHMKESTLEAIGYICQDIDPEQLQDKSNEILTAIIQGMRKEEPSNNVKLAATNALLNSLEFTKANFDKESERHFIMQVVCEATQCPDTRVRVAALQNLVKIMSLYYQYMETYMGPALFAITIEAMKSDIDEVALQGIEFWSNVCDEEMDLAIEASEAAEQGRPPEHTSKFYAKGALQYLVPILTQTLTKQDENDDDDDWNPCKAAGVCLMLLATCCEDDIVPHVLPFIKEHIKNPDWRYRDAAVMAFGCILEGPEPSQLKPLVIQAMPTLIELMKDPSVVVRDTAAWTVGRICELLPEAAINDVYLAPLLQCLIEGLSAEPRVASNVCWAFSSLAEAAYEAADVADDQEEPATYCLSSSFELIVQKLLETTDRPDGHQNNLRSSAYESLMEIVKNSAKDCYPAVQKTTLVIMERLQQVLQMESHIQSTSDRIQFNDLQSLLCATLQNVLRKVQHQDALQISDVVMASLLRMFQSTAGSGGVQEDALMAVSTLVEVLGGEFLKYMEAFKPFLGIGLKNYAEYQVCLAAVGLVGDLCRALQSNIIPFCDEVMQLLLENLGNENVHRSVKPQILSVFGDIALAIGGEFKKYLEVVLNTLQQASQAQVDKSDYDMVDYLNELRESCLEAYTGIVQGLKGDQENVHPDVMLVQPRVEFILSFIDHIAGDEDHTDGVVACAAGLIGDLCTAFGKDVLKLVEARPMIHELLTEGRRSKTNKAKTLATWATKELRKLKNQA
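FRET biosensor Rango (snurportin 1 IBB between N-terminal EYFP and C-terminal Cerulean), 50 nM in PBS/1 mM DTT/0.02% Tween-20/0.1% BSA, preincubated 5 min RT with compound; 0.125 microM importin beta added, 45 min RT, CFP/YFP FRET ratio read.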
Rango release inh: inhibitors of RanGTP-induced Rango-importin beta complex dissociation | O95149+P62826 | Biochemical FRET Rango-importin beta, RanGTP-induced dissociation | Potency, µM (series often up to 46.1 µM), without a hit: at the highest dose activity change, negative = inhibition | 340,000 compounds, 0.071% hits | AID 540253; active means falling FRET ratio curve, often poorly fitted, with flat reads before Ran was added; inconclusive means other falling curves, or compound fluorescence or quenching; inactive means flat or rising ratio curve;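 note: potency is the fitted concentration of half-maximal effect; % of control where 0% means no effect; nearly all actives have a fitted effect of over 45% in size; -100% = wells without RanGTP and RCC1; the record marks most hits as doubtful in a second field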
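Recombinant Rango FRET biosensor (EYFP–snurportin 1 IBB–cerulean CFP10) at 0.1 uM premixed with 0.25 uM importin beta in PBS, 1 mM DTT, 0.02% Tween-20, 0.1% BSA. Compound added 5 min; RanGTP-RCC1 (0.6 uM Ran, 2 mM GTP, 0.2 uM RCC1) then triggers release, read at 45 min.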
miR-21 FLuc: miR-21 reporter, rising signal | HeLa miR-21 FLuc reporter, luciferase, 48 h | Potency, µM (top dose mostly 38.3 µM), for the others: top-dose reporter change, positive = more light | 340,000 tested, under 10 active; active = well fitted rising curve with a large enough effect; inconclusive = small, poorly fitted or top-dose-only effect; inactive = no such curve, though single readings can be large or run the other way;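 note: % of control where 0% means no effect; miR-21 action dims this reporter so a rising signal means less miR-21 action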
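Using DMEM plus 10% FBS, HeLa miR-21-FLuc cells are incubated with test compounds (final up to about 40uM) for 48 hours; firefly luciferase signal is then imaged following reagent-mediated lysis.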
Numbers without * were called inactive; u = inconclusive; x = not tested or not shown; & = joins results of further samples; [ ] = dose if it differs, or a comment. An excerpt. The share of hits here may be higher or lower than overall.

Results follow in this order: GLA inh pH 4.5	Rango complex inh	Rango release inh	miR-21 FLuc
- Cc1cc(C)c2c(c1)/C(=C/C(=O)c1ccc(Br)s1)C(=O)N2
  4.0	7.1%	-22.7%	2.9%
- Cc1ccc(NC(=O)CCNS(=O)(=O)c2ccc3[nH]c(=O)oc3c2)c(Cl)c1
  x	1.3%	27.4%	-1.1%
- O=C(CCc1nc2ccccc2c(=O)[nH]1)Nc1ccc(F)c([N+](=O)[O-])c1
  8.4	u	-29.2%	-17.7%
- COc1cc(S(=O)(=O)N(Cc2ccccn2)Cc2ccco2)ccc1-n1cnnn1
  3.6	1.3%	5.6%	-0.7%
- O=C(Cn1cc(C(F)(F)F)ccc1=O)N/N=C/c1ccc(Cl)cc1
  -6.6	-2.5%	-5.8%	-2.6%
- CC(C)CC(c1nnnn1Cc1ccco1)N1CCN(c2cccc(Cl)c2)CC1 (stereo not given)
  1.4	0.2%	-5.7%	-4.7%
- COc1ccccc1N1CCN(C(=O)C(Cc2ccccc2)NC(=O)C2CCCCC2)CC1 (stereo not given)
  -0.7	-2.5%	-0.4%	-3.4%
- Cc1cc(NC(=O)c2ccc(N(C)S(=O)(=O)c3ccccc3)cc2)no1
  -13.5	4.3%	-7.0%	24.2%
- CC1CCCN1c1ccnc2cc(Cl)ccc12 (stereo not given)
  x	-1.3%	5.3%	x
- CCN(C(=O)COC(=O)CCC(=O)c1ccccc1)c1c(N)n(Cc2ccccc2)c(=O)[nH]c1=O
  x	-0.2%	-10.8%	x
- N#C/C(=C\c1cccnc1)C(=O)Nc1ccc(C(=O)O)cc1
  4.5	-0.1%	-16.4%	-2.2%
- O=C(COC(=O)COc1ccc(Cl)cc1)Nc1ccc(N2CCOCC2)cc1
  10.6	1.0%	11.7%	0.3%
- COC(=O)c1ccccc1NC(=O)Nc1ccc(C)cn1
  -7.7	-1.4%	1.3%	-18.5%
- COC(=O)c1ccc(NC(=O)c2ccco2)cc1
  4.3	-6.2%	6.7%	-45.0%
- C=C1c2ccc(C)cc2NC(=O)N1c1ccccc1
  1.4	-2.5%	-0.6%	-7.9%
- Fc1ccc(CSc2nnc3ccccn23)c(Cl)c1
  5.6	0.1%	5.2%	-57.4%
- COc1cccc(NC(=O)CN(C)C(=O)C2CC(=O)N(CCc3ccc(OC)c(OC)c3)C2)c1 (stereo not given)
  x	1.8%	-6.8%	x
- CCc1cccc(CC)c1NC(=S)Nc1cccc(Cl)c1Cl
  5.5	-1.4%	-7.9%	-5.6%
- COc1ccc([C@H]2CC(=O)C=C(c3cccc(OCc4ccccc4)c3)C2)cc1
  x	-1.5%	22.6%	x
- COc1ccccc1NC(=O)C/C(N)=N/OCC(=O)Nc1cccc(Cl)c1
  x	2.4%	-2.7%	x

Results follow in this order: GLA inh pH 4.5	Rango complex inh	Rango release inh	miR-21 FLuc
- CC(=O)Nc1ccc(NC(=O)c2cc(=O)c3cc(C)cc(C)c3o2)cc1
  x	1.0%	1.5%	-1.0%
- Cc1ccc(NC(=O)C(NC2CCCC2)c2ccccc2)cc1Cl (stereo not given)
  -8.1	-3.0%	24.0%	3.9%
- CN(C1=C(NC(=O)c2ccccc2)C(=O)c2ccccc2C1=O)C1CCS(=O)(=O)C1 (stereo not given)
  -6.5	-0.1%	-10.2%	19.7%
- CSc1nc2ccc(NS(=O)(=O)c3ccccc3F)cc2s1
  -0.2	-3.4%	-3.6%	-28.3%
- Cc1ccc(N(CN2CCCC2=O)C(=O)c2ccc(C)c(C)c2)cc1
  7.0	5.1%	-1.2%	-12.0%
- CCSCc1nnc(SCC(=O)Nc2ccc(F)cc2)n1CC
  -15.8	-4.3%	24.0%	-7.9%
- O=C(CSc1nnc(-c2ccco2)n1Cc1ccco1)NCc1cccs1
  -10.8	1.5%	-12.7%	-5.4%
- Cc1nn(CCC#N)c2[nH]c(=O)cc(C(F)(F)F)c12
  1.2	0.9%	12.8%	1.8%
- CCOC(=O)CSC1=C(C#N)C(c2ccccc2Cl)C(C(=O)OC)C(=O)N1 (stereo not given)
  2.6	u	0.5%	-10.6%
- O=C(O)CCCC(=O)NS(=O)(=O)c1ccc(Cl)cc1
  4.6	u	-5.8%	-1.0%
- CCCCCCCCCCCC(=O)NC(Cc1ccc(OC)c([N+](=O)[O-])c1)C(=O)O (stereo not given)
  -6.9	-0.4%	6.2%	-2.4%
- COc1ccc(C(CCc2cc(OC)c(OC)c(OC)c2)NC(C)=O)cc1 (stereo not given)
  x	-3.2%	-6.9%	x
- COc1ccc2[nH]c3c(=O)n4c(nc3c2c1)SCCC4
  13.8[21.1 µM]	1.1%	0.1%	-13.6%
- COc1ccc(C(=O)NC(=S)NNC(=O)c2ccccc2O)cc1
  x	-0.3%	-3.0%	27.4%
- CC(=O)Nc1ccc(CCCCc2ccccc2)cc1
  x	5.7%	-0.7%	x
- C#CCOCCOCCOCCNc1nc(N2CCN(C(=O)Cn3cc(CC(C)O)nn3)CC2)nc(N2CCN(C(=O)[C@H]([C@@H](C)CC)n3cc(CCCN=C(N)N)nn3)CC2)n1 (stereo not given in full)
  -2.1	-1.4%	7.0%	-1.5%
- CCC(C)Sc1nc2c(cnn2-c2ccc(C)cc2)c(=O)[nH]1 (stereo not given)
  -5.6	-3.7%	1.2%	-3.2%
- COc1cc(C2C(C(C)=O)=C(O)C(=O)N2c2ccc(Br)cn2)ccc1O (stereo not given)
  9.6	1.1%	6.9%	-5.0%
- CNC(=O)N(O)C1N(/N=C/c2ccccc2F)C(=S)SC1(C)C (stereo not given)
  x	-2.3%	-4.6%	-7.3%
- C=CCNC(=O)c1nc2ccccc2s1
  4.8	0.1%	-15.4%	-24.3%

Results follow in this order: GLA inh pH 4.5	Rango complex inh	Rango release inh	miR-21 FLuc
- CS(=O)(=O)c1ccc(C(=O)OCC(=O)NC(=O)Cc2ccccc2)cc1
  x	-3.5%	6.0%	x
- COc1ccc(C)cc1NC(=O)CN(C)S(=O)(=O)c1ccc2c(c1)c(=O)n(C)c(=O)n2C
  x	0.3%	-5.6%	0.9%&-2.1%
- Cc1cc(N2CCCC2=O)cc(C)c1S(=O)(=O)NCCOc1ccccc1
  -3.2	-0.4%	20.1%	17.4%
- N#Cc1cc([N+](=O)[O-])cnc1Nc1ccccc1
  -1.6	u	5.2%	-15.4%
- O=C(CSc1nnnn1C1CC1)Nc1cccc(S(=O)(=O)N2CCCC2)c1
  x	1.7%	0.5%	x
- CC[C@]12c3[nH]c4cc(CCC(=O)N(C)C)ccc4c3CCN1C(=O)[C@@H](CC(=O)NC(C)(C)C)C[C@@H]2C(=O)N1CCN(C(=O)C2CC2)CC1
  x	1.7%	6.0%	x
- COc1ccccc1NC(=O)c1cc2cc(Br)ccc2cc1O
  -2.3	-1.9%	u	u
- Cc1ccccc1NC(=O)CSc1nc2ncc(Cl)cc2[nH]1
  x	2.6%	0.8%	8.5%
- COc1ccc(NC(=O)c2cc(-c3ccc(OC)c(OC)c3)on2)cc1OC
  1.1	-2.7%	-1.7%	-2.2%
- CCSc1nnc(NC(=O)CCn2c(=O)oc3ccccc32)s1
  3.6	-1.8%	-3.9%	-1.5%
- O=C(C1COc2ccccc2O1)N1CCN(c2ccccc2Cl)CC1 (stereo not given)
  -0.5	-2.7%	-4.9%	-1.3%
- COc1ccc(C(=O)NCCCN2CCOCC2)cc1OC
  8.3	-2.9%	17.6%	-2.0%
- CC(C)(C)NC(=O)NC(=O)CN1CCN(c2ccc(O)cc2)CC1
  -6.8	-5.0%	-2.7%	17.9%
- COc1ccc(C2=Nn3c(nnc3-c3ccccc3F)SC2)cc1OCC1CC1
  x	-0.4%	-17.0%	x
- CCc1noc(C)c1C(=O)N(CCC(C)C)c1c(N)n(Cc2ccccc2)c(=O)[nH]c1=O
  x	0.3%	-12.5%	x
- O=C(/C(=C/c1cccc(Cl)c1)c1nc2ccccc2[nH]1)c1ccccc1
  6.1	-0.3%	-7.1%	u
- COC(=O)c1cccc(NC(=O)COc2cccc([N+](=O)[O-])c2)c1
  0.7	0.3%	-5.9%	-22.6%
- CCO/C(C)=N/n1c2nc3ccccc3nc2c2c(=O)n(CC(C)C)c(C)nc21
  4.4	3.0%	-3.4%	-3.8%
- O=C(Nc1cccc(NC(=O)c2ccco2)n1)c1ccco1
  x	-3.6%	-7.7%	3.2%
- COc1ccc(OCc2nnc(NC(=O)Nc3ccccc3F)s2)cc1
  6.7	4.7%	8.6%	-0.5%

In another format: entries from further up
CS(=O)(=O)c1ccc(C(=O)OCC(=O)NC(=O)Cc2ccccc2)cc1
- GLA inh pH 4.5 = x
- Rango complex inh = -3.5%
- Rango release inh = 6.0%
- miR-21 FLuc = x
COc1ccc(C)cc1NC(=O)CN(C)S(=O)(=O)c1ccc2c(c1)c(=O)n(C)c(=O)n2C
- GLA inh pH 4.5 = x
- Rango complex inh = 0.3%
- Rango release inh = -5.6%
- miR-21 FLuc = 0.9%&-2.1%
Cc1cc(N2CCCC2=O)cc(C)c1S(=O)(=O)NCCOc1ccccc1
- GLA inh pH 4.5 = -3.2
- Rango complex inh = -0.4%
- Rango release inh = 20.1%
- miR-21 FLuc = 17.4%

(list continues)
Results follow in this order: GLA inh pH 4.5	Rango complex inh	Rango release inh	miR-21 FLuc
- O=C(NNC(=O)c1cccs1)c1cccc(F)c1
  x	0.6%	6.2%	-17.3%
- C/C(=N/NC(=O)c1ccc2c(c1)OCO2)c1ccc(NC(=O)c2ccc(F)cc2)cc1
  x	0.6%	8.6%	-37.2%
- CC(C)N=C1NN=C(c2ccc(F)cc2)CS1
  -8.3	-2.3%	-4.1%	-11.4%
- CN(CCCN1CCOCC1)Cc1nc(-c2ccccc2)no1
  -1.1	-2.0%	0.2%	-6.8%
- CCOc1ccc(CCNC(=O)C2CC(C)=CCC2C(=O)O)cc1OCC (stereo not given)
  x	-2.1%	0.9%	-0.1%
- CSC1=C(C#N)C(C)CC(=O)N1 (stereo not given)
  4.8	-0.1%	-11.2%	1.2%
- O=C(Nc1ccn(CCCNCc2ccc3[nH]ccc3c2)c(=O)n1)OCc1ccccc1
  x	1.0%	-18.0%	x
- Cc1ccnc(NS(=O)(=O)c2ccc(NC(=O)CN3C(=O)c4ccccc4S3(=O)=O)cc2)n1
  x	0.9%	u	x
- O=[N+]([O-])c1ccc(Cl)c(C[n+]2cccc3ccccc32)c1
  x	7.2%	1.3%	11.8%
- CCn1c(-c2ccc[nH]c2=O)nc2ccccc21
  x	0.1%	9.8%	-1.1%
- CCOc1ccc(S(=O)(=O)N(CC)CC(=O)NC2CCS(=O)(=O)C2)cc1 (stereo not given)
  x	-3.6%	0.4%	x
- O=C(Nc1ccccc1[N+](=O)[O-])c1nc[nH]c1C(=O)NCCO
  -3.0	-1.2%	-0.9%	-4.7%
- CC(C)C[C@H](NC(=O)OC(C)(C)C)C(=O)N1CCC(C(=O)N[C@@H](Cc2ccccc2)C(=O)O)CC1
  x	-0.3%	-0.8%	1.4%
- O=C(CCN1CCN(c2ccccc2F)CC1)Nc1ccc(F)cc1
  x	-0.8%	1.0%	-1.1%
- COc1cccc(-n2c(C)nn(CCOc3ccccc3)c2=O)c1
  0.1	0.2%	10.8%	-32.0%
- CSCCC(NC(=O)c1ccccc1)C(=O)N1CCCCCCC1 (stereo not given)
  x	6.3%	-3.1%	x
- CCN(CC)CCNc1nc(-c2cccs2)c(CC(=O)O)s1
  2.6	0.5%	4.4%	-0.2%
- O=C(CCCn1c(=O)[nH]c2cc(Cl)ccc2c1=O)NC1CCCCCCC1
  3.0	0.4%	4.5%	2.0%
- COc1ccc(N/C(N)=N/c2nc(C)cc(C)n2)c(OC)c1
  3.7	0.1%	13.8%	8.2%
- COc1cc(-c2nnc(SC(C)C(=O)Nc3c(C)n(C)n(-c4ccccc4)c3=O)o2)cc(OC)c1OC (stereo not given)
  0.3	2.9%	-6.1%	-0.9%
